eIF4H FP inh – inhibitors of RNA binding by human eIF4H; actives 0.94% (n = 290,000); inhibition, % at 35 µM; eIF4H fluorescence polarization binding assay; AID 2012; Q15056;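 active = 50% or more with normal probe brightness, or confirmed in later tests; about a fifth of its hits are not listed in these tables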;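 also: calls also rest on retests at 20 µM and on dose response follow-up; 0% = protein and probe with vehicle and 100% = probe without protein; strong numbers were not always called active; many hits fall short of the cut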
CSC inhib – blocks cancer stem cells. actives 1.1% (n = 300,000). inhibition, % at 7.5 µM. AID 2717. cancer stem cell-like cells viability, luminescence;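 active = mean at 75% or more and at least half the replicates too; tested in HMLE shEcad cells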;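 also: 0% = median of negative and 100% = median of positive control wells; the first replicate is given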
PABP FP inh – PABP-poly(A) binding inhibition; PABP-poly(A) RNA binding, fluorescence polarization; inhibition, % at 35 µM; actives 1% (n = 290,000); AID 2014;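 active = 50% or more with normal probe brightness, or confirmed in later tests; about a fifth of its hits are not listed in these tables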;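 also: calls also rest on retests at 20 µM and on dose response follow-up; controls were probe without protein and protein plus probe with vehicle; some compounds called inactive have numbers as strong as hits; many hits fall short of the cut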
Target sequence (P11940 whole entry, looked up): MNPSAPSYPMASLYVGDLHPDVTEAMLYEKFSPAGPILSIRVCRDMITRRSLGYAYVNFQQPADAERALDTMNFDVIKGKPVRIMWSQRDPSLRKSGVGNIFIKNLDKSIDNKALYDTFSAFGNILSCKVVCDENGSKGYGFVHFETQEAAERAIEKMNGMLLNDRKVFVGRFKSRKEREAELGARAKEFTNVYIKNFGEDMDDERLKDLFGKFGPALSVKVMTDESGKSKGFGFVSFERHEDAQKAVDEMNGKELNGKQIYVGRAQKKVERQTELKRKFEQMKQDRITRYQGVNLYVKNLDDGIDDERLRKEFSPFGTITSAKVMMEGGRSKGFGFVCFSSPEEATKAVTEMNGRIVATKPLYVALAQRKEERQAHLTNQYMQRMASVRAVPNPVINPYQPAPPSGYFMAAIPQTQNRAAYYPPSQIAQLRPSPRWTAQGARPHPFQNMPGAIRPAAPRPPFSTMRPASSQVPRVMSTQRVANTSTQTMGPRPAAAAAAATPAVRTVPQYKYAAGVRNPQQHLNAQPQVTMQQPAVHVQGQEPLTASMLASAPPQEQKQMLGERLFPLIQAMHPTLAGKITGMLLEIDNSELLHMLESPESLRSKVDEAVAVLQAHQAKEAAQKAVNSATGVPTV
MT1-MMP act inh – blocks activation of human MT1-MMP; P50281; HT1080 RFP-PRO-GFP cells, GFP/RFP ratio fluorescence, overnight; percent of plate control window, DMSO zero; GFP/RFP ratio change, % at 20 µM; actives 0.061% (n = 360,000);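 active = GFP/RFP ratio change of at least 30% with cell ATP level not reduced by more than half and red fluorescence within 50% of control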; also: strong numbers were not always called active
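Material: RFP-PRO-GFP reporter HT1080 cells. Dosing: single-point 20 µM compound, 1% DMSO. Controls: DMSO and RFP-L50D-GFP cell wells. Timing: cells overnight before dosing, compound overnight, 37 °C, 5% CO2. Measure: GFP/RFP fluorescence ratio.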
Yeast UUG start – yeast start codon fidelity modulation; AID 602363; activity score, % at 18.7 µM; actives 0.13% (n = 350,000); S. cerevisiae UUG-firefly luciferase reporter, luminescence/redox ratio;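 active = replicate mean at a twofold rise or more, about +100% in these data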;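 also: firefly luciferase made from a UUG start codon reports start codon fidelity; reporter light over untreated wells divided by growth signal over untreated wells; some hits fall short of that in this replicate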
Env fusion inh – HIV envelope-mediated fusion inhibition; HeLa-JRFL Env/CEM21 cell fusion, luciferase; inhibition, % at 12.3 µM; AID 651610; actives 1.1% (n = 360,000);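 active = mean replicate inhibition score of at least 50 and every replicate individually at or above 50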;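 also: 0% = plate neutral controls and 100% = maraviroc near 300 nM; one replicate is shown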
Rce1 inhib – yeast Ras-converting enzyme inhibition; AID 2563; actives 0.27% (n = 290,000); yeast membranes, quenched prenylated peptide cleavage fluorescence; calls only; Q03530;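 active = fall in fluorescence gain of 50% or more versus controls, with final raw signal at or below 3038400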;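 also: plate controls were neutral control wells for no effect and wells lacking membranes for full effect; tested at 10 µM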
Target sequence (Q03530 whole entry, looked up): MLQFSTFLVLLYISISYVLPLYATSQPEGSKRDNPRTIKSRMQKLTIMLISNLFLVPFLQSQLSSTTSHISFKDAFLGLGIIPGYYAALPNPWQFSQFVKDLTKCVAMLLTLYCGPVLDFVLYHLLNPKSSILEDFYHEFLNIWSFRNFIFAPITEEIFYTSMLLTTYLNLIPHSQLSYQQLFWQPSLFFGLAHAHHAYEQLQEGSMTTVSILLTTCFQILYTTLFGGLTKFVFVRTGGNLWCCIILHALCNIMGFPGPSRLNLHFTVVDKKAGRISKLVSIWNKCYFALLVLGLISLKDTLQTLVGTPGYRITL
eIF4H FP inh retest – also measured in eIF4H FP inh; calls as there; inhibition, %; compound at 20 µM; confirmation average;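 mean of two retest wells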
PABP FP inh retest – recorded beside PABP FP inh, whose call it bears; inhibition, %; compound at 20 µM; confirmation repeats;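 mean of two retest wells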
MT1-MMP act inh RFP – also measured in MT1-MMP act inh; calls as there; RFP signal change, %; measured here: RFP expression control read;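 0 = vehicle wells; hits needed this value within 50% of zero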
* hit, by the source's call.

Results for N/C(=N\OC(=O)c1ccc(Cl)cc1Cl)c1ccccc1 ?
eIF4H FP inh: -1; CSC inhib: 2; PABP FP inh: 1; MT1-MMP act inh: -8; Yeast UUG start: -64; Env fusion inh: -255; Rce1 inhib: inactive; MT1-MMP act inh RFP: 3

What do the screens show for `Cc1ccc(NC(=O)C(C)Sc2nc(=O)cc(N)n2-c2ccccc2)cc1` (centres undefined)?
eIF4H FP inh: -10; CSC inhib: 0; PABP FP inh: 1; MT1-MMP act inh: 0; Yeast UUG start: 0; Env fusion inh: 28; Rce1 inhib: inactive; MT1-MMP act inh RFP: 7

What do the screens show for `COc1ccc(OC)c(C(=O)NC(CC(N)=O)c2ccc(NC(C)C)c([N+](=O)[O-])c2)c1` (centres undefined)?
eIF4H FP inh: 3; CSC inhib: 2; PABP FP inh: 1; MT1-MMP act inh: 9; Yeast UUG start: 4; Env fusion inh: -17; Rce1 inhib: inactive; MT1-MMP act inh RFP: 4

What do the screens show for `O=C(CN1CCCCC1)NC(=O)NCc1ccccc1`?
eIF4H FP inh: 4; CSC inhib: -16; PABP FP inh: 5; MT1-MMP act inh: 1; Yeast UUG start: -2; Env fusion inh: 4; Rce1 inhib: inactive; MT1-MMP act inh RFP: 5

What do the screens show for `CC(C)(CNC(=O)c1ccc(-c2cccc(C(F)(F)F)c2)o1)N1CCOCC1`?
CSC inhib: 13; MT1-MMP act inh: -4; Env fusion inh: 37; Rce1 inhib: inactive; MT1-MMP act inh RFP: 0

Results for CC1(C(=O)Nc2ccc(Cl)c(Cl)c2)CCN1C(=O)CC1CCCC1 (centres undefined) ?
MT1-MMP act inh: 3; Yeast UUG start: -8; Env fusion inh: 24; MT1-MMP act inh RFP: -1

How did Cc1ccc(/C=N/N2CCN(Cc3ccccc3)CC2)cc1 do in these assays?
eIF4H FP inh: 2; CSC inhib: 2; PABP FP inh: -3; MT1-MMP act inh: 4; Yeast UUG start: -16; Env fusion inh: 4; Rce1 inhib: inactive; MT1-MMP act inh RFP: 3

How did COc1ccccc1NC(=O)CSc1nccn1Cc1ccccc1 do in these assays?
eIF4H FP inh: -2; CSC inhib: -5; PABP FP inh: -15; MT1-MMP act inh: 2; Yeast UUG start: -19; Env fusion inh: 8; Rce1 inhib: inactive; MT1-MMP act inh RFP: -1

How did CC(=O)c1c(C)[nH]c(C(=O)Nc2ccc(Cl)c(S(=O)(=O)N(C)C)c2)c1C do in these assays?
eIF4H FP inh: 6; CSC inhib: -2; PABP FP inh: 3; MT1-MMP act inh: 12; Env fusion inh: -69; Rce1 inhib: inactive; MT1-MMP act inh RFP: 1

Results for O=C(C1=C[C@H](c2csc3ccccc23)C[C@H](OCc2ccc(CO)cc2)O1)N1CCN(Cc2ccc3c(c2)OCO3)CC1 ?
eIF4H FP inh: -8; CSC inhib: 27; PABP FP inh: -16; MT1-MMP act inh: -3; Yeast UUG start: -3; Env fusion inh: 10; Rce1 inhib: inactive; MT1-MMP act inh RFP: -15

What do the screens show for `O=C(NC1CC1)c1ccc(CS(=O)c2ccc(Br)cc2)o1` (centres undefined)?
eIF4H FP inh: 8; CSC inhib: -18; PABP FP inh: -6; MT1-MMP act inh: -3; Yeast UUG start: -26; Env fusion inh: 10; Rce1 inhib: inactive; MT1-MMP act inh RFP: 1

How did O=C(NCCc1c[nH]c2ccccc12)c1cncc(Br)c1 do in these assays?
eIF4H FP inh: 7; CSC inhib: -5; PABP FP inh: 6; MT1-MMP act inh: 0; Yeast UUG start: -9; Env fusion inh: -9; Rce1 inhib: inactive; MT1-MMP act inh RFP: -4

Results for CCO[C@@H]1OC(C(=O)O)=C[C@H](c2ccc(C(F)(F)F)cc2)[C@H]1CCCO ?
eIF4H FP inh: 7; CSC inhib: 38; PABP FP inh: 10; MT1-MMP act inh: 8; Yeast UUG start: -8; Env fusion inh: -4; Rce1 inhib: inactive; MT1-MMP act inh RFP: 0

Results for COc1ccc(NC(=O)CSc2nc(-c3ccco3)nc3cc(=O)[nH]n23)cc1Cl ?
eIF4H FP inh: 32; CSC inhib: 4; PABP FP inh: 21; MT1-MMP act inh: 4; Yeast UUG start: -32; Env fusion inh: 1; Rce1 inhib: inactive; MT1-MMP act inh RFP: -1

How did CCOc1cc(C(=O)Nc2ccc(F)cc2)cc(Br)c1OC do in these assays?
eIF4H FP inh: -13; CSC inhib: -11; PABP FP inh: -9; MT1-MMP act inh: 2; Env fusion inh: -19; Rce1 inhib: inactive; MT1-MMP act inh RFP: -11

Results for CCCN1C(=O)/C(=C/c2nc3ccccc3c(=O)[nH]2)c2ccccc21 ?
eIF4H FP inh: -5; CSC inhib: 7; PABP FP inh: -4; MT1-MMP act inh: 5; Env fusion inh: -34; Rce1 inhib: inactive; MT1-MMP act inh RFP: -1

How did Cc1cc(OC(C)C)nc(-c2ccccc2O)n1 do in these assays?
eIF4H FP inh: 1; CSC inhib: -11; PABP FP inh: -4; MT1-MMP act inh: 1; Yeast UUG start: -15; Env fusion inh: -6; Rce1 inhib: inactive; MT1-MMP act inh RFP: 3

What do the screens show for `CCCOc1ccc(/C=C/C(=O)N2CCN(C(=O)c3ccco3)CC2)cc1OC`?
MT1-MMP act inh: 0; Yeast UUG start: 2; Env fusion inh: -1; MT1-MMP act inh RFP: -2

What do the screens show for `Cc1onc2c(=O)n(-c3ccccc3)nc(-c3ccccc3)c12`?
eIF4H FP inh: 2; CSC inhib: -2; PABP FP inh: -4; MT1-MMP act inh: 1; Yeast UUG start: -9; Env fusion inh: -4; Rce1 inhib: inactive; MT1-MMP act inh RFP: 2

How did CCOc1ccc(S(=O)(=O)NCc2ccc3c(c2)OCO3)cc1 do in these assays?
eIF4H FP inh: 3; CSC inhib: -4; PABP FP inh: 2; MT1-MMP act inh: 3; Yeast UUG start: -11; Env fusion inh: -17; Rce1 inhib: inactive; MT1-MMP act inh RFP: 1

Results for CCOC(=O)N1CCC(NC(=O)c2cc(C(=O)NCc3ccc(F)cc3)ccc2CO)CC1 ?
eIF4H FP inh: 3; CSC inhib: -16; PABP FP inh: -12; MT1-MMP act inh: 3; Yeast UUG start: 6; Env fusion inh: 0; Rce1 inhib: inactive; MT1-MMP act inh RFP: -8

How did Cc1ccc(S(=O)(=O)c2nc(Nc3ccccc3N3CCOCC3)sc2Cl)cc1 do in these assays?
eIF4H FP inh: 5; CSC inhib: -3; PABP FP inh: 1; MT1-MMP act inh: -18; Yeast UUG start: -25; Env fusion inh: -6; Rce1 inhib: inactive; MT1-MMP act inh RFP: -18

How did CC(=O)Nc1ccc(S(=O)(=O)NCCC(=O)OCc2csc(CC(=O)Nc3ccccc3C)n2)cc1 do in these assays?
CSC inhib: -15; MT1-MMP act inh: 1; Env fusion inh: -11; Rce1 inhib: inactive; MT1-MMP act inh RFP: 5

Results for CC(CCc1ccccc1)NC(=O)C1CCC1 (centres undefined) ?
CSC inhib: -18; MT1-MMP act inh: 1; Yeast UUG start: -24; Env fusion inh: -2; Rce1 inhib: inactive; MT1-MMP act inh RFP: 3

How did O=C(COc1ccccc1C(=O)O)Nc1cccc2ccccc12 do in these assays?
CSC inhib: -5; MT1-MMP act inh: 4; Yeast UUG start: 22; Env fusion inh: -8; MT1-MMP act inh RFP: 3

What do the screens show for `O=C(Cn1ccc2cc(S(=O)(=O)N3CCCC3)ccc21)NCc1ccccc1`?
eIF4H FP inh: -4; CSC inhib: 4; PABP FP inh: 1; MT1-MMP act inh: -1; Yeast UUG start: -4; Env fusion inh: -5; Rce1 inhib: inactive; MT1-MMP act inh RFP: 0

What do the screens show for `COc1ccccc1-n1nnnc1SCc1cc2c(cc1Br)OCO2`?
eIF4H FP inh: -1; CSC inhib: 19; PABP FP inh: 7; MT1-MMP act inh: -4; Yeast UUG start: -12; Rce1 inhib: inactive; MT1-MMP act inh RFP: 0

Results for COc1ccc(OC)c(C(O)c2ncc(-c3ccccc3Cl)[nH]2)c1 (centres undefined) ?
MT1-MMP act inh: 3; Yeast UUG start: -25; Env fusion inh: -8; MT1-MMP act inh RFP: -3

Results for CCOC(=O)c1c(NC(=O)C2=C(C)NC(=S)NC2c2ccc(F)cc2F)sc(C)c1C (centres undefined) ?
eIF4H FP inh: 2; CSC inhib: 25; PABP FP inh: -1; MT1-MMP act inh: -16; Yeast UUG start: -11; Env fusion inh: -5; Rce1 inhib: inactive; MT1-MMP act inh RFP: -7

What do the screens show for `Cc1ccc(S(C)=O)cc1-n1c(=O)n(Cc2ccccc2)c(=O)c2[nH]cnc21` (centres undefined)?
eIF4H FP inh: -6; CSC inhib: -7; PABP FP inh: -5; MT1-MMP act inh: 4; Yeast UUG start: -15; Env fusion inh: 1; Rce1 inhib: inactive; MT1-MMP act inh RFP: 1

What do the screens show for `Cc1ccc(NC(=O)c2ccc(OCC3CCCO3)cc2)c(C)c1` (centres undefined)?
eIF4H FP inh: -3; CSC inhib: -10; PABP FP inh: 8; MT1-MMP act inh: 6; Env fusion inh: -16; Rce1 inhib: inactive; MT1-MMP act inh RFP: 9

What do the screens show for `COc1ccc(Cl)cc1Nc1nc(N)nc(C(F)(F)F)n1`?
eIF4H FP inh: 4; CSC inhib: -5; PABP FP inh: 2; MT1-MMP act inh: -4; Yeast UUG start: -19; Env fusion inh: 6; Rce1 inhib: inactive; MT1-MMP act inh RFP: -2

How did COC(=O)[C@@H]1Cc2c([nH]c3ccccc23)C2CCC(=O)N21 (some centres undefined) do in these assays?
eIF4H FP inh: -9; CSC inhib: 2; PABP FP inh: 9; MT1-MMP act inh: 9; Yeast UUG start: -16; Env fusion inh: 2; Rce1 inhib: inactive; MT1-MMP act inh RFP: 15

How did O=c1oc(Nc2cccc(F)c2)nc2ccccc12 do in these assays?
eIF4H FP inh: -8; CSC inhib: -2; PABP FP inh: -3; MT1-MMP act inh: 4; Yeast UUG start: -16; Rce1 inhib: inactive; MT1-MMP act inh RFP: 6

What do the screens show for `CS(=O)(=O)c1ccc(C(=O)N2CC(=O)Nc3ccccc32)cc1`?
eIF4H FP inh: -5; CSC inhib: -7; PABP FP inh: 25; MT1-MMP act inh: 1; Yeast UUG start: -14; Env fusion inh: -3; MT1-MMP act inh RFP: 5

How did O=C(Cc1coc2cc3c(cc12)CCC3)OCC(=O)N1CCCC1=O do in these assays?
eIF4H FP inh: -1; CSC inhib: 0; PABP FP inh: 2; MT1-MMP act inh: 0; Env fusion inh: 36; Rce1 inhib: inactive; MT1-MMP act inh RFP: 4

What do the screens show for `CCCCc1c(O)nc(SCC(=O)c2ccccc2)n(-c2ccccc2OC)c1=O`?
eIF4H FP inh: -6; CSC inhib: 6; PABP FP inh: 8; MT1-MMP act inh: -4; Yeast UUG start: 3; Env fusion inh: 10; Rce1 inhib: inactive; MT1-MMP act inh RFP: 7

Results for COc1cccc(CN2CCNC(=O)C2CC(=O)NCc2cn3ccccc3n2)c1OC (centres undefined) ?
eIF4H FP inh: 86*; CSC inhib: -8; PABP FP inh: 38*; MT1-MMP act inh: -2; Env fusion inh: 12; Rce1 inhib: inactive; eIF4H FP inh retest: 53*; PABP FP inh retest: 50*; MT1-MMP act inh RFP: 3
